Screens deposited in PubChem BioAssay by National Center for Advancing Translational Sciences (NCATS).
TRPV1 potentiator: human TRPV1 potentiation | TRPV1-expressing cells, Fluo-8 calcium influx, capsaicin EC20 potentiation; host cell line not named in the record; control for the full effect not named in the record | Q8NER1 | potentiation, % at 8.33 µM | 320,000 compounds, 0.02% hits | AID 540277; active means potentiation above 80%; inconclusive means 30% to 80%; inactive means below 30%; further: 0% is about no effect
Target sequence (Q8NER1 whole entry, looked up): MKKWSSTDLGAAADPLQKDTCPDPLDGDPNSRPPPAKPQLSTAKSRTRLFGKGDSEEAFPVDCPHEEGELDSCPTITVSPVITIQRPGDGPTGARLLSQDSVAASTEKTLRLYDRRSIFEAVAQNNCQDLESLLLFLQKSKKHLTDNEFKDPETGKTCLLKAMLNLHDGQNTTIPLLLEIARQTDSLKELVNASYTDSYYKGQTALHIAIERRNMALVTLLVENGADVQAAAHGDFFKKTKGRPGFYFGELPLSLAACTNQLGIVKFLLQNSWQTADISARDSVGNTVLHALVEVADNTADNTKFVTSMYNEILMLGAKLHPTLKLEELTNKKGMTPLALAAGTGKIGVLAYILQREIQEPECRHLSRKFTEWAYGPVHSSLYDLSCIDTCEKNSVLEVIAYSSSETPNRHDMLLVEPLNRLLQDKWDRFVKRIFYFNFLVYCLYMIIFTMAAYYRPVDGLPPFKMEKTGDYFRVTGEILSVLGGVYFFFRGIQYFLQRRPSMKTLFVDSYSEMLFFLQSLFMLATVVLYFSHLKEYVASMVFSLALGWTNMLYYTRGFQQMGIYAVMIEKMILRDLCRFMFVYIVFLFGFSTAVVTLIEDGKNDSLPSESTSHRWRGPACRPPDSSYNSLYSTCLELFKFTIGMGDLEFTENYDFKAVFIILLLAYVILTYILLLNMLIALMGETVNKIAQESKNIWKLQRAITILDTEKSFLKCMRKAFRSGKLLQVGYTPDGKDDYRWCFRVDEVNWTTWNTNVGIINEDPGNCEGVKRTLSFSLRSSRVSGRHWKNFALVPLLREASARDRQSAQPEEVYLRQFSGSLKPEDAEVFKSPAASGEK
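Fluo-8 calcium influx in TRPV1-expressing cells, kinetic read (ex 480/em 520 nm). Compound added and read 3 min for agonist activity, followed by capsaicin at EC20 final and 2 min further read for enhancement.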
Menin-MLL FL inh: menin-MLL binding inhibition, fluorescein peptide; FP activity change, % at 61.4 µM; Fluorescence polarization, fluorescein-MLL peptide displacement from menin; 290,000 tested, under 10 active; inconclusive = falling polarisation curve, or a change in total fluorescence; inactive = total fluorescence flat and polarisation flat or rising; no compound was filed as active; the % refers to the polarisation; negative = inhibition;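 further: % of control where 0% means no effect; inhibitors lower the polarisation; unlabelled MLL peptide was the positive control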
Sfp PPTase inh: Sfp phosphopantetheinyl transferase inhibition. Q9F4F7. Biochemical Sfp PPTase activity, qHTS. Potency, µM, without a hit: max response, negative = inhibition, hits mostly inhibitors. 310,000 compounds, 3.5% hits; active means well fitted inhibition curve with a large enough effect; inconclusive means small, poorly fitted or top-dose-only effect, or another doubt; inactive means no such curve, though single readings can be large or run the other way;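 further: the enzyme is Sfp with the accession as filed and its product quenches rhodamine fluorescence; potency means the concentration at half of the fitted maximal effect; 0% = enzyme reaction without inhibitor and -100% = no enzyme wells; top concentration of the series not given in the record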
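Reaction rates are the 30-min fluorescence difference (ex 525, em 598 nm) in wells containing 15 nM Sfp, 5 uM rhodamine-CoA and 12.5 uM BHQ-2-YbbR at pH 7.6 with 10 mM MgCl2.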
TRPML1 blocker: blocks the human TRPML1 channel; activity change, negative = inhibition, % (test concentration not listed); AID 624415; 390,000 compounds, 0.02% hits; TRPML1-inducible cells, Ca2+ dye fluorescence, FDSS; hits give low values; inhibition of EC80 agonist-evoked calcium signal; in the data active means activity change below about -50%; inconclusive means about -30% to -50%; inactive means above about -30%;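 further: stimulus is agonist 54-4 at its EC80 concentration; on the % scale 0 is the no-effect control and ±100 the full control effect; compound concentration not given in the record; the text of the record puts the active cut at -80%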
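Tet-induced TRPML1-DL cells loaded with Ca8 no-wash calcium dye were read kinetically on FDSS. Compound addition was followed by EC80 agonist 54-4 (4 uM final); inhibition was read over 110 s.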
ClpP mod: qHTS Assay for Activators of ClpP | purified B. subtilis ClpP, FRET peptide cleavage, 20 min | Potency, µM (highest dose often 57.5 µM), without a hit: top-dose activity change, negative = active | 340,000 compounds, 1.9% hits | AID 651965, 2013; active = well fitted falling curve with a large enough effect; inconclusive = small, poorly fitted or top-dose-only effect; inactive = no such curve, though single readings can be large or run the other way; further: potency means the concentration at half of the fitted maximal effect; the source files actives as falling curves though it sought activators and does not explain the sign; nearly all actives have a fitted effect of over 65% in size; many hits overshoot -100%
Target sequence (P80244 whole entry, looked up): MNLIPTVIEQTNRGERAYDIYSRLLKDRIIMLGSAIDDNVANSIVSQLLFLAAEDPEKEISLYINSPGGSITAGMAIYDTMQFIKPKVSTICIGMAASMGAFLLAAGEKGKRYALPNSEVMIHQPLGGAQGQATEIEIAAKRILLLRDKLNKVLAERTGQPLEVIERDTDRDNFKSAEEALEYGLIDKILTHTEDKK
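Buffer: 100 mM Tris/HCl pH8, 100 mM KCl, 0.05% low protease BSA, 2.5% glycerol, 0.01% Tween-20. ClpP 10 microg/mL final; 20 min RT; delta FRET normalized to ADEP and DMSO controls.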
TRPML1 ag: human mucolipin-1 channel agonism. Q9GZU1. TRPML1-expressing cells, Ca2+ dye fluorescence, FDSS; host cell line not named in the record; reference of the full effect not given here. activation, % (concentration not given with the values). 410,000 compounds, 0.12% hits. AID 624414; in the data active = activation above about 50%; inconclusive = about 30% to 50%; inactive = below about 30%; further: 0% is about no effect; the text of the record puts the active cut at 80%
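Calcium fluorescence on an FDSS kinetic reader gave the read-out. Tet-induced TRPML1-DL cells were plated overnight, dye-loaded (Ca8 with quencher, 45-90 min, room temperature, dark), then read 110 s after compound addition, and again 110 s after 4uM final 54-4 (EC80).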
PINK1 expr mod: changes PINK1 expression | PINK1 immunofluorescence, high-content cytometry, 24 h | 410,000 compounds, 0.2% hits | Potency, µM (top dose mostly 76.6 µM), for inactives: at the top dose activation (PINK1 increase), hits mostly activators | AID 624263; active = well fitted activation curve with a large enough effect; inconclusive = small, poorly fitted or top-dose-only effect; inactive = flat fitted curve, though single readings scatter; cell line not stated here;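 further: potency means the concentration at half of the fitted maximal effect; % of control where 0% means no effect; nearly all actives have a fitted effect of over 65% in size; a mitochondrial uncoupler was the plate control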
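Decision-based qHTS: stable cells, 24 h exposure to five compound concentrations, CCCP as control. Fixed cells stained for PINK1 plus nuclear, mitochondrial and cell markers, cytometer read.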
* hit, by the source's call; ? = inconclusive; / = no result given; & = joins results of further samples; [ ] = another dose, or the depositor's remark.

SMILES	TRPV1 potentiator	Menin-MLL FL inh	Sfp PPTase inh	TRPML1 blocker	ClpP mod	TRPML1 ag	PINK1 expr mod
C/C(=N/NS(=O)(=O)c1ccccc1)c1ccc(NC(=O)C2CC2)cc1	-7	2.5	5%	-1	/	0.6	1.4%
CCCCN1C(=O)CN(C2CCCCCC2)C(=O)C1c1ccc(OCCC)c(OC)c1 (configuration not stated)	/	/	/	34	0.4%	-0.8	-0.1%
Cn1c(N2CCC(C(N)=O)CC2)nc2c1c(=O)n(Cc1ccc(Br)cc1)c(=O)n2C	/	/	/	4	-1.3%	0.3	3.2%[38.3 µM]
CC(C)CC(=O)/C(=C/c1ccc(N(C)C)cc1)n1cncn1	-8	?	10%	1	-0.1%	-0.1	1.7%
O=C1CC(C2CCCO2)C(=O)N1c1cccc(Cl)c1 (configuration not stated)	-10	0.3	11%	38	1.2%	0.0	-1.1%
N#C/C(=C\c1ccc(-c2ccc(C(=O)O)cc2)o1)C(=O)NCC1CCCO1 (configuration not stated)	-4	6.5	4%	5	?	1.0	-0.8%
Cc1cccc(CN2CCN(C3CCCC3)C(CCO)C2)n1 (configuration not stated)	-13	1.2	-3%	0	-0.7%	-0.5	-3.3%
C=CCN(CC=C)C(=O)c1cccc(OC2CCN(CC(C)(C)C)CC2)c1	-3	-1.0	-14%	-4	0.6%	0.5	-0.9%
Cc1cc(C)cc(N(CC(=O)NCCSCc2ccccc2)S(C)(=O)=O)c1	-9	-2.2	2%	-19	/	-0.8	-0.2%
O=C1c2ccccc2C(=O)c2c(NCCCN(CCO)CCO)cccc21	-1	-1.5	-21%	-7	/	-0.9	-1.5%
COc1ccc(N2CCN(S(=O)(=O)CCNC(=O)c3c(F)cccc3Cl)CC2)cc1	/	/	/	21	-7.5%	2.4	3.1%
Cc1ccn2c(CNCC3COCCO3)c(C(=O)N3CCCCCC3)nc2c1 (configuration not stated)	9	1.7	10%	3	-23%	0.3	2.6%
CN(C(=O)Cc1noc2ccccc12)c1ccccc1	-3	3.0	-9%	-1	0.6%	-0.9	-0.9%
CCc1ccc(CNC(=O)c2sc3nc[nH]c(=O)c3c2C)cc1	/	/	/	7	-14%	0.4	1.0%
CN1C(=S)N(c2cccnc2)C(=O)/C1=C\c1ccc(N(C)C)cc1	4	?	?	27	/	25	4.4%
COc1ccc(C(=O)CC(=O)c2ccccc2)cc1	/	/	/	4	/	0.9	1.0%
COc1cccc(NC(=O)C2C3C=CC(O3)C2C(=O)NCc2cccnc2)c1 (configuration not stated)	-8	1.2	14%	39	8.3%	0.0	2.9%
O=C(Nc1ccc(F)c(Cl)c1)C1CC(=O)n2c(nc3ccccc32)N1 (configuration not stated)	-4	-0.7	?	-2	/	3.6	1.6%
c1ccc2c(c1)OCc1cn[nH]c1-2	17	1.8	4%	8	-2.4%	-0.8	1.1%
CC(=O)N/N=C(/C)c1ccc(NC(=O)c2csc(C)c2C)cc1	-15	/	15%	12	-2.3%	-0.9	-0.6%
Cc1nn(C)c2ncc(C(=O)c3ccccc3O)cc12	9	-0.3	13%	-6	/	0.5	0.6%
CCc1ccc(NC(=O)C2CCCN(S(=O)(=O)c3cccc4nsnc34)C2)cc1 (configuration not stated)	/	/	/	-1	1.9%	-0.6	1.3%
Cc1ccccc1/C=C/C1=NCCN1	1	-0.5	/	-11	-1.0%	0.1	8.8%
CC(=O)c1ccc(NC(=O)CSc2ccc(-c3sc(C)nc3C)nn2)cc1	6	/	3%	-12	-0.3%	0.9	2.8%
Fc1ccccc1CSc1nncn1NCc1cccs1	-23	2.3	3%	-13	-4.7%	-0.7	-4.6%[38.3 µM]

Of the compounds above, these contain two or more sulfur atoms.
SMILES	TRPV1 potentiator	Menin-MLL FL inh	Sfp PPTase inh	TRPML1 blocker	ClpP mod	TRPML1 ag	PINK1 expr mod
Cc1cc(C)cc(N(CC(=O)NCCSCc2ccccc2)S(C)(=O)=O)c1	-9	-2.2	2%	-19	/	-0.8	-0.2%
CCc1ccc(NC(=O)C2CCCN(S(=O)(=O)c3cccc4nsnc34)C2)cc1 (configuration not stated)	/	/	/	-1	1.9%	-0.6	1.3%
CC(=O)c1ccc(NC(=O)CSc2ccc(-c3sc(C)nc3C)nn2)cc1	6	/	3%	-12	-0.3%	0.9	2.8%
Fc1ccccc1CSc1nncn1NCc1cccs1	-23	2.3	3%	-13	-4.7%	-0.7	-4.6%[38.3 µM]

Remaining list, next part.
SMILES	TRPV1 potentiator	Menin-MLL FL inh	Sfp PPTase inh	TRPML1 blocker	ClpP mod	TRPML1 ag	PINK1 expr mod
Cc1cc(/C=N/NC(=O)CC2(C)OCCO2)c(C)n1-c1cc(Cl)cc(Cl)c1	-3	-0.3	-9%	16	0.6%	5.5	2.3%
COc1ccccc1C(O)(c1ccccc1)c1ccccc1OC	/	/	/	-7	/	2.0	2.7%
Nc1ccc(C(=O)N(CCO)CCO)cc1	1	-1.9	20%	7	/	1.8	1.6%
C[C@@H]1C=C(C(=O)N2CCN(C)CC2)O[C@H](OCc2ccc(CO)cc2)C1	17	-3.7	17%	-10	-1.3%	-0.4	0.6%
Cn1c(SCC(=O)Nc2ccc(Br)cc2F)nnc1-c1ccco1	1	-2.9	1%	13	0.5%	0.8	-1.2%
COc1ccc(C2(CNC(=O)c3cccc([N+](=O)[O-])c3)CCOCC2)cc1	-16	-1.5	6%	1	-3.3%	-0.5	-2.5%
COC(=O)C1[C@H]2C(=O)N(Cc3cccs3)C[C@]23C=C[C@H]1O3 (some centres not stated)	-10	0.4	13%	-12	2.2%	1.2	1.2%[38.3 µM]
Cc1n[nH]c(=O)c2c(NC(=O)COC(=O)Cc3c(F)cccc3Cl)oc(C)c12	-3	/	/	-13	-3.5%	-0.2	0.6%
CCc1cc(=O)n2c([nH]c3ccccc32)c1C#N	1	5.5	6%	2	-3.3%	-0.7	-1.0%
CCc1ccccc1OCC(=O)OCC(=O)Nc1cc(C)on1	4	/	/	21	-0.4%	1.4	0.7%
COc1cc([N+](=O)[O-])ccc1NC(=S)Nc1cc(C(=O)OC(C)C)cc(C(=O)OC(C)C)c1	-18	2.1	21%	27	?	0.2	16µM*
COc1ccc(-c2nnc(NC(=O)CSc3ccccc3)s2)cc1OC	5	-2.1	18%	-20	22µM*	0.8	8.1%
CSc1nc2ccccc2cc1/C=C(\C#N)c1ccc(Cl)c(Cl)c1	2	-1.3	-4%	17	?	1.3	4.0%
CCOC(=O)C1CCN(Cc2cn[nH]c2-c2ccc(C)cc2)CC1	13	3.0	-8%	7	-0.9%	1.2	-4.2%
Cc1ccc(CNC(=O)CCCn2c(=O)c3ccccc3n(CC(=O)NCc3ccco3)c2=O)cc1	-2	0.0	1%	3	-2.1%	-0.7	8.4%
Oc1ccc(-c2sc(Nc3ccccc3)n[n+]2-c2ccc(F)cc2)cc1	?	11	20%	19	-0.1%	0.6	1.0%
O=C(c1ccc2c(c1)OCCO2)N1CCN(c2nc(-c3cccs3)nc3ccccc23)CC1	/	/	/	/	?	-0.5	0.8%
COc1ccc(-n2cnc3cc(C(=O)NC4CCCCCC4)ccc32)cc1	/	/	/	3	-4.4%	0.5	0.9%
CCn1c2ccccc2c2cc(/C=N/O)ccc21	2	-1.5	1%	-8	3.2%	-0.4	-2.9%
CC(=O)c1cccc(NC(=S)NCCc2ccc(F)cc2)c1	-6	-0.1	12%	-1	-27%	-0.8	0.8%
COC(=O)c1ccc(CON2C(=O)c3ccccc3C2=O)cc1	-8	-2.2	-4%	-5	-2.7%	-1.4	-1.1%
CC(=O)c1cccc(NC(=O)c2sc(Cl)nc2C)c1	-24	-1.8	7%	21	-1.3%	0.7	0.5%
CCN1CCN(Cc2c(O)ccc3c(=O)c(-c4ccc(OC)c(OC)c4)c(C(F)(F)F)oc23)CC1	16	-0.6	2%	-1	-3.1%	-0.4	3.1%[38.3 µM]
O=c1[nH]cc(N(CCO)CCO)c(=O)[nH]1	-1	-1.2	7%	-8	/	-0.2	0.0%
Cc1ccc2nc(N(CCCN(C)C)C(=O)CN3C(=O)c4ccccc4C3=O)sc2c1	15	-2.3	2%	9	-1.7%	1.0	1.2%
SMILES	TRPV1 potentiator	Menin-MLL FL inh	Sfp PPTase inh	TRPML1 blocker	ClpP mod	TRPML1 ag	PINK1 expr mod
CC(Cl)C(=O)Nc1ncc(C(F)(F)F)cc1Cl (configuration not stated)	2	-2.4	17%	0	-6.6%	-0.3	4.5%[38.3 µM]
CCOc1ccc(NC(=O)Cn2cc(S(=O)(=O)NC)c(S(=O)(=O)NC)c2)cc1	/	/	/	4	-2.1%	0.4	1.0%
CCOC(=O)c1cc2c(=O)n3ccccc3nc2n(CC2CCCO2)c1=NC(=O)c1ccccc1C (configuration not stated)	/	/	/	28	4.2%	0.3	?
CC(C)CCn1c(=O)c2sccc2n2c(CCCC(=O)Nc3ccc(C(C)C)cc3)nnc12	/	/	/	23	-12%	-0.2	1.1%
COc1cc(NC(=O)C/C(C)=N/NC(=O)C(=O)NC2CCCCC2)c(OC)cc1Cl	2	-5.5	8%	-7	-2.7%	1.8	-0.1%
COc1cccc(NC(=O)CSc2nnc(-c3cccs3)n2C)c1	2	0.2	7%	-14	16%	-1.5	2.0%
O=C(COc1cc2oc(=O)c3c(c2cc1Cl)CCC3)Nc1ccc(CN2CCOCC2)cc1	7	-5.0	0%	1	/	0.4	4.8%
Cc1ccc(CC(=O)Nc2ccc(S(=O)(=O)N3CCOCC3)cc2)cc1	-22	-2.5	10%	16	/	1.9	-3.0%
Oc1c(C(c2cccs2)N2CCOCC2)sc2ncnn12 (configuration not stated)	7	0.9	16%	0	1.6%	-0.1	1.8%
CCOc1ccc(N(C(C)C(=O)NCCSc2ccc(C)cc2)S(C)(=O)=O)cc1 (configuration not stated)	/	/	/	20	1.0%	0.6	1.5%
CCC(C(=O)O)N1C(=O)C2CCCCC2C1=O (configuration not stated)	25	0.3	7%	3	-2.1%	0.3	2.9%
CCN1CCN(C(=O)CN(Cc2ccccc2)S(C)(=O)=O)CC1	-5	2.6	10%	6	-0.6%	-0.1	-0.1%
COc1ccc(NC(=O)C(CC(C)C)NC(=O)C2CCC(C)CC2)cc1 (configuration not stated)	-16	-6.9	20%	17	/	-0.5	9.8%
O=C(c1ccc(Cl)s1)N1CCN(S(=O)(=O)c2ccc(Cl)cc2)CC1	/	/	/	-14	/	-0.6	0.2%
COc1ccc(-c2nc(SCC(=O)NC3CCCC3)c(-c3ccc(OC)cc3)[nH]2)cc1	12	0.3	10%	-8&8	-25%&-23%	-0.9&-0.6	1.1%&2.5%
